# D2 PAM: Beta-Arrestin HTS for Positive Allosteric Modulators of the Human D2 Dopamine Receptor: Potentiators | DiscoveRx D2 beta-arrestin cells, luminescence, 90 min; 100% = 57 uM dopamine signal | potentiation, % (concentration not given with the values) | 360,000 tested, 0.23% active; active = potentiation of 50% or more; inconclusive = 30% to 50%; inactive = 30% or less;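 further: compound concentration not given in the record; tested on top of an EC20 dose of dopamine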
# Target sequence (P14416 whole entry, looked up): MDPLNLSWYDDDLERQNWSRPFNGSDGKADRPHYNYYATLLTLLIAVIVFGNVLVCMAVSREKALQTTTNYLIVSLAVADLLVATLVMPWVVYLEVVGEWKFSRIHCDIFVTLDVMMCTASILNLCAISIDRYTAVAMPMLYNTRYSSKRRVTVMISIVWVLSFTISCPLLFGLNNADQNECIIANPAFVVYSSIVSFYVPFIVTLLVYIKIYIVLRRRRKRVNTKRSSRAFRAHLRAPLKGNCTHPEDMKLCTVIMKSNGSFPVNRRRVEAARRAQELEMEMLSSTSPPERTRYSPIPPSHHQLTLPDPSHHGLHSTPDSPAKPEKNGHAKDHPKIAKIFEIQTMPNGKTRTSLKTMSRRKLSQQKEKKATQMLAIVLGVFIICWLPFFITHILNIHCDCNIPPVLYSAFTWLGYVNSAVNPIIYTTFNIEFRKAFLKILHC
#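 PathHunter beta-arrestin assay in DiscoveRx D2 cells. Compounds were added with an EC20 of dopamine (50 nM final) for 90 min at 37 deg C. Luminescence was read 1 h after detection reagent, with 57 uM dopamine as the EC100 control.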
# TRPML1 ag: qHTS for Agonists of the Human Mucolipin Transient Receptor Potential 1 (TRPML1); TRPML1-expressing cells, Ca2+ dye fluorescence, FDSS; host cell line not named in the record; reference of the full effect not given here; activation, % (test concentration not listed); Mucolipin-1 (Homo sapiens), Q9GZU1; 410,000 tested, 0.12% active; AID 624414, 2012; in the data active = activation above about 50%; inconclusive = about 30% to 50%; inactive = below about 30%; further: 0% is about no effect; the text of the record puts the active cut at 80%
# Target sequence (Q9GZU1 whole entry, looked up): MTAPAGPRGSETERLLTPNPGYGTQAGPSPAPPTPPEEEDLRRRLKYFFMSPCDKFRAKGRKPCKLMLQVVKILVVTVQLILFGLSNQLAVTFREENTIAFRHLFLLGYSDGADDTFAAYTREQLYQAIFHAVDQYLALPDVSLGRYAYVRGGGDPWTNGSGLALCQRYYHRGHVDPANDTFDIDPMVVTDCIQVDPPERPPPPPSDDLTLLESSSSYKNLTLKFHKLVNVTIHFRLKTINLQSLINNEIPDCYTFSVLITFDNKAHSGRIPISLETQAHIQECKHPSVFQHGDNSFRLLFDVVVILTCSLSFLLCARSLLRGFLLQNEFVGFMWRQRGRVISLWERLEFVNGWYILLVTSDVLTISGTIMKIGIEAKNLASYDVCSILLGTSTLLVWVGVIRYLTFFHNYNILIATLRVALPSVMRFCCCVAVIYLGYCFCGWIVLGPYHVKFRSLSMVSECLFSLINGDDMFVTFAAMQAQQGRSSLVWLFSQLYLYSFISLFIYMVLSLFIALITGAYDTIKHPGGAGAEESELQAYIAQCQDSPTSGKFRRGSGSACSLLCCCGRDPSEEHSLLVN
#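 Tet-induced TRPML1-DL cells, 1,500 per well, cultured overnight, were loaded with a no-wash Ca2+ dye for 45–90 min. Calcium fluorescence was recorded on the FDSS for 110 s after compound addition, before the EC80 agonist (4 uM 54-4) was added.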
# TRPML1 inh: qHTS for Inhibitors of the Human Mucolipin Transient Receptor Potential 1 (TRPML1) | activity change, negative = inhibition, % (test concentration not listed) | Mucolipin-1 (Homo sapiens), Q9GZU1 | TRPML1-inducible cells, Ca2+ dye fluorescence, FDSS; stronger effect = lower value; inhibition of EC80 agonist-evoked calcium signal | 390,000 tested, 0.02% active; in the data active means activity change below about -50%; inconclusive means about -30% to -50%; inactive means above about -30%;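 further: stimulus is agonist 54-4 at its EC80 concentration; on the % scale 0 is the no-effect control and ±100 the full control effect; compound concentration not given in the record; the text of the record puts the active cut at -80%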
#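 Tet-induced TRPML1-DL cells loaded with Ca8 no-wash calcium dye were read kinetically on FDSS. Compound addition was followed by EC80 agonist 54-4 (4 uM final); inhibition was read over 110 s.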
# CtBP-E1A blk: qHTS Assay for Inhibitors of the CtBP/E1A Interaction | 340,000 tested, 0.49% active | activity change, % (no concentration beside the values) | CtBP / adenovirus E1A interaction (AlphaScreen) | AlphaScreen GST-E1A/His-CtBP binding, 1536-well; stronger effect = lower value; control for the full effect not named in the record; in the data active means activity change below about -65%; inconclusive means about -30% to -65%; inactive means above about -30%; further: on the % scale 0 is the no-effect control and ±100 the full control effect; compound concentration not given in the record
#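 Steps: dispense buffer (Tris pH 8.0, NaCl 300 mM, TCEP 1 mM, BSA, Tween 20); add 5X protein mix (GST-E1A, His-CtBP, 125 nM each); pin 23 nL compound; 2 h at 37 °C, dark; add 5X beads (50 ug/mL); 1 h; read.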
# TRPV1 PAM: HTS Assay for Compounds that Act as Potentiators of the Vanilloid Receptor 1. Transient receptor potential cation channel subfamily V member 1 (Homo sapiens), Q8NER1. TRPV1-expressing cells, Fluo-8 calcium influx, capsaicin EC20 potentiation; host cell line not named in the record; control for the full effect not named in the record. potentiation, % at 8.33 µM. 320,000 tested, 0.02% active; active means potentiation above 80%; inconclusive means 30% to 80%; inactive means below 30%; further: 0% is about no effect
#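 TRPV1-expressing cells were cultured overnight at 35.5C and loaded with Fluo-8 calcium dye for 40 to 90 min at room temperature. After a 10 s baseline, compound was added and calcium influx was read kinetically for 3 min (ex 480/em 520 nm).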
# Six1-Eya2 inh: qHTS Assay for Inhibitors of the Six1/Eya2 Interaction; activity change, % (no concentration beside the values); AID 651725, 2012; 360,000 tested, 0.56% active; Homeobox protein SIX1 (Homo sapiens) + Protein phosphatase EYA2 (Homo sapiens), …; AlphaScreen GST-Six1/His-Eya2 binding, biochemical; stronger effect = lower value; control for the full effect not named in the record; in the data active = activity change below about -65%; inconclusive = about -30% to -65%; inactive = above about -30%; further: on the % scale 0 is the no-effect control and ±100 the full control effect; compound concentration not given in the record
#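 AlphaScreen luminescence read after one hour at 37 °C in darkness. Pin-transferred compounds met GST-Six1 and His-Eya2 protein (5X stock 250 nM/500 nM) plus glutathione donor and Ni-chelate acceptor beads (5X, 50 ug/mL).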
# Starred values were filed as active, the others as inactive; ? = inconclusive; / = not tested or not shown; & = joins results of further samples.
SMILES,D2 PAM,TRPML1 ag,TRPML1 inh,CtBP-E1A blk,TRPV1 PAM,Six1-Eya2 inh
COc1ccc(C(=O)N/C(=C\c2cccs2)c2nc3ccccc3[nH]2)cc1OC,-18.6,-0.6,-15.0,-2.2,-8.6,-3.7
Cc1ccc(NC(=O)COc2cccc3c2OC(C)(C)C3)c(O)c1,-12.7,-0.2,-17.1,7.8,-13.1,-4.9
CC(C)C1OC2(C)OC(=N)C1(C#N)C(C#N)(C#N)C2c1ccccc1 (stereo not drawn),11.8,0.0,-10.5,-26.0,2.4,13.1
CN1c2ccccc2SC2C(c3ccccc3)=NOC21 (stereo not drawn),-9.9,-1.3,/,12.0,/,2.4
Cc1cc(NC(=O)c2cccc(S(=O)(=O)N3c4ccccc4CC3C)c2)no1 (stereo not drawn),-20.1,4.1,16.7,-7.0,4.0,-9.7
O=C(NCCc1ccccc1)C(=O)NCC1OCCCN1S(=O)(=O)c1cc(F)ccc1F (stereo not drawn),-11.8,1.1,25.3,0.0,-6.3,11.2
O=C(CN(CC1CCCO1)C(=O)Cn1nnc(-c2ccc(F)cc2)n1)NC1CCCCC1 (stereo not drawn),-3.2,-0.6,-4.3,3.8,?,2.4
Cc1ccc(C2(c3noc(CN(C)CC4COCCO4)n3)CCCC2)cc1 (stereo not drawn),-3.7,-0.7,-8.6,0.0,5.7,14.3
O=C(C1CCCN(Cc2ccccc2[N+](=O)[O-])C1)N1CCCCC1 (stereo not drawn),-2.4,0.1,16.0,/,3.4,6.7
CC(C)NC(=O)C(C)N1CCN(S(=O)(=O)c2ccc3ccccc3c2)CC1 (stereo not drawn),-9.2,-0.4,4.3,4.5,?,6.7
COc1cccc(C(=O)NC2CCCN(C3Cc4ccccc4C3)C2)c1OC (stereo not drawn),-34.7,-0.9,27.6,0.9,3.0,1.2
O=C(NCCc1ccccc1)c1ccc2c(c1)S(=O)(=O)c1cc(Cl)ccc1C2=O,-13.8,-0.5,-3.0,-5.5,14.7,-13.8
CC(OC(=O)Cn1c(C(F)(F)F)nc2ccccc21)C(N)=O (stereo not drawn),-8.0,-0.4,21.6,8.5,-4.0,3.2
CN(C)S(=O)(=O)c1cccc(NC(=O)COC(=O)CCc2nc3ccccc3s2)c1,-10.4,1.5,-5.0,-1.0,3.9,-0.9
CCS(=O)(=O)c1ccc2oc(SCC(=O)NCCC3=CCCCC3)nc2c1,-3.2,0.2,-1.2,-2.4,3.2,13.6
Cc1cc(NC(=O)C(C)C)ncc1NC(=O)c1ccccn1,-2.0,1.2,-13.7,10.1,4.8,-0.8
COc1cccc(N2C(=O)C3CC=C(Cl)CC3C2=O)c1 (stereo not drawn),-6.5,1.3,-21.0,8.0,-4.5,4.9
CNC[C@H]1OCc2ccccc2-c2ccccc2C(=O)N([C@@H](C)CO)C[C@H]1C,-3.5,-0.2,-14.2,4.8,/,4.2
CN(C)c1ccc(C2C3=C(CCCC3=O)OC3=C2C(=O)CCC3)cc1,10.9,-0.5,-13.0,-0.4,9.2,0.1
CCC1Sc2ccc(S(=O)(=O)CCC(=O)Nc3ccc(OC(F)(F)F)cc3)cc2NC1=O (stereo not drawn),-4.7,0.1,-6.3,/,-10.7,-9.3
Cc1cccc(N2CCN(C(=O)c3cccc(N4CCCC4=O)c3)C(C)C2)c1 (stereo not drawn),-6.6,0.2,5.5,/,-0.8,-1.0
CC1CN(C(=O)c2cc3cc(Br)ccc3[nH]2)CC(C)O1 (stereo not drawn),-1.8,-1.0,12.4,4.3,-12.3,-14.4
O=C(Nc1ccccc1-c1nnn(CC(=O)N2CCN(c3ccccc3)CC2)n1)c1cccs1,6.4,0.5,1.8,8.9,20.9,-4.9
COCCCNC(=O)C(C#N)c1nc2ccccc2nc1N1CCN(Cc2ccccc2)CC1 (stereo not drawn),-10.1,1.0,6.4,6.0,3.4,3.8
NS(=O)(=O)c1ccc(CCNC(=O)c2ccccc2OCc2ccc(F)cc2)cc1,-3.2,1.7,24.7,0.9,-5.9,-2.9

# 3 of the compounds above, with values under each structure:
# Sequence of screens – D2 PAM, TRPML1 ag, TRPML1 inh, CtBP-E1A blk, TRPV1 PAM, Six1-Eya2 inh
- O=C(C1CCCN(Cc2ccccc2[N+](=O)[O-])C1)N1CCCCC1 (stereo not drawn)
 : -2.4, 0.1, 16.0, /, 3.4, 6.7
- CC(C)NC(=O)C(C)N1CCN(S(=O)(=O)c2ccc3ccccc3c2)CC1 (stereo not drawn)
 : -9.2, -0.4, 4.3, 4.5, ?, 6.7
- COc1cccc(C(=O)NC2CCCN(C3Cc4ccccc4C3)C2)c1OC (stereo not drawn)
 : -34.7, -0.9, 27.6, 0.9, 3.0, 1.2

# (list continues)
SMILES,D2 PAM,TRPML1 ag,TRPML1 inh,CtBP-E1A blk,TRPV1 PAM,Six1-Eya2 inh
FC(F)(F)c1cccc(Nc2cc(-c3ccccc3)nc3ncnn23)c1,-15.3,-0.6,1.8,/,1.2,5.9
O=c1cc(-c2ccc(O)c(O)c2)oc2cc(O)cc(O)c12,21.6,1.4&-0.9,-2.3,?,-19.6,?
O=C(CSc1nnnn1Cc1ccccc1)c1ccccc1F,-6.0,1.3,-5.6,/,3.4,-2.0
COC(/C=C/Nc1ccc(Cl)cc1)=C(C#N)C#N,0.1,-0.4,9.7,6.3,-9.3,-0.4
Cc1ccc(C)n1-n1c(C)nc2scc(-c3cccs3)c2c1=O,-23.4,2.4,1.6,-15.9,-4.3,-29.5
COc1ccc(NC(=O)CN(C)C(=O)Cc2n[nH]c(=O)c3ccccc23)cc1,-2.0,0.7,8.1,7.1,1.8,10.4
CN(C(=O)/C(N=Nc1cccc(C(F)(F)F)c1)=C(\O)C(F)(F)F)c1ccccc1,-1.3,-0.7,-12.2,-2.8,-3.2,3.3
Cc1nc(SCC(=O)N(CC(C)C)C2CCS(=O)(=O)C2)c(C#N)c(C)c1C (stereo not drawn),-2.7,0.9,-11.8,7.0,-14.5,-3.6
CC(=O)Nc1ccc(Oc2cnccn2)cc1,-9.7,1.0,-11.1,-1.4,5.3,7.8
CCN1CCN(C(=O)CSc2ccc(C)cc2)CC1,-26.8,-0.3,-13.9,/,-0.6,4.3
O=c1oc(-c2ccccc2NS(=O)(=O)c2ccc(F)cc2)nc2ccccc12,-6.5,-0.3,6.3,5.3,6.1,0.0
CCOC(=O)c1[nH]c(C)c(C(=O)Nc2ccc(C)cc2C)c1C,0.2,0.1,-4.9,0.6,24.5,-5.0
Cc1ccc2oc(C(=O)N3CCC(C(N)=O)(N4CCCCC4)CC3)c(C)c2c1,-1.0,0.3,11.9,/,-0.4,4.1
COC(=O)C(Cc1c[nH]c2ccccc12)NC(=O)C1CC1 (stereo not drawn),-1.9,5.9,-4.5,7.4,-1.5,-7.6
O=C(CCC(=O)c1ccccc1)NCc1ccccc1,-1.5,-0.6,-9.2,4.5,-35.1,4.5
CC(C)CCn1c2ccccc2c2cc(CC(N)=O)ccc21,3.8,1.8,72.9,0.0,4.7,-8.4
CCc1ccccc1NC(=O)CCOc1ccccc1,-6.0,4.1&-1.4,-1.2&-14.3,/,12.4,-0.8
CN(C)S(=O)(=O)c1cc(NC(=O)COC(=O)CC2Sc3ccccc3NC2=O)ccc1Cl (stereo not drawn),-8.2,1.8,38.7,-9.1,/,-6.9
O=C(NCc1ccccc1)c1ccc2nc(-c3ccco3)c(-c3ccco3)nc2c1,?,-0.6,0.6,-22.6,-0.5,?
Cc1cc(NC(=O)CCCn2ccc([N+](=O)[O-])n2)n(Cc2ccc(F)cc2)n1,-3.6,0.1,-12.0,12.6,-3.1,5.4
COc1ccc(/C=C/C(=O)c2cc(Br)ccc2O)cc1OC,-10.8,0.9,24.1,7.5,9.2,3.5
CCc1nnc(NC(=O)CSc2nnc3ncccn23)s1,5.6,-0.3,-4.5,0.1,-0.5,2.4
COc1cccc(OC)c1OCCOCCn1cnc2ccccc2c1=O,-1.2,2.5,8.7,-4.0,7.8,1.8
CCC1CCCCN1C(=O)Nc1ccc(F)cc1 (stereo not drawn),-6.8,0.7,25.4,-15.9,3.3,0.4
Cc1ccc(S(=O)(=O)n2nccc2-c2c(-c3ccc(Cl)cc3)noc2C)cc1,-3.2,?,5.7,7.3,0.5,7.6

# Further entries:
SMILES,D2 PAM,TRPML1 ag,TRPML1 inh,CtBP-E1A blk,TRPV1 PAM,Six1-Eya2 inh
CCCCN(C(=O)c1cc(CN2C(=O)c3ccccc3C2=O)ccc1OC)c1c(N)n(CC(C)C)c(=O)[nH]c1=O,-21.7,0.0,24.1,-2.8,/,10.6
O=C(C1=C[C@H](C2CCCCC2)C[C@H](OCc2ccc(CO)cc2)O1)N1CCN(Cc2ccccc2)CC1,-18.2,-0.8,2.4,-14.3,-12.1,-9.1
O=[N+]([O-])c1c(NCCCO)cc(Sc2ccc(Cl)cc2)c2nonc12,-16.5,-0.3,11.7,-3.5,-2.1,-0.3
COc1ccc(CCNC(=O)/C(=C/c2cccnc2)NC(=O)c2ccccc2)cc1OC,-5.1,-0.9,-10.2,/,?,-4.1
Cc1nn(-c2nccs2)c2c1C(=O)CC(C)(C)C2Br (stereo not drawn),6.3,-1.3,29.6,4.6,/,0.6
CN(C)S(=O)(=O)c1ccc(Cl)c(C(=O)Nc2cccc([N+](=O)[O-])c2)c1,2.2,1.1,-4.8,9.9,6.5,0.3
COc1ccc(F)cc1S(=O)(=O)Nc1ccc2c(c1)OCO2,-2.6,0.3,-20.3,-25.3,-1.9,2.4
Nc1ccnn1Cc1cccs1,6.0,-0.5,-27.3,-6.7,1.8,3.3
CN1CCC(N(C)C(=O)c2ccc(Cl)c(S(=O)(=O)N(C)c3ccc(Cl)cc3)c2)CC1,4.3,0.6,-20.7,-0.8,/,3.4

# Ordered by length of the SMILES (high to low): part of the list above
SMILES,D2 PAM,TRPML1 ag,TRPML1 inh,CtBP-E1A blk,TRPV1 PAM,Six1-Eya2 inh
CCCCN(C(=O)c1cc(CN2C(=O)c3ccccc3C2=O)ccc1OC)c1c(N)n(CC(C)C)c(=O)[nH]c1=O,-21.7,0.0,24.1,-2.8,/,10.6
CNC[C@H]1OCc2ccccc2-c2ccccc2C(=O)N([C@@H](C)CO)C[C@H]1C,-3.5,-0.2,-14.2,4.8,/,4.2
O=C(C1CCCN(Cc2ccccc2[N+](=O)[O-])C1)N1CCCCC1 (stereo not drawn),-2.4,0.1,16.0,/,3.4,6.7
Cc1ccc(NC(=O)COc2cccc3c2OC(C)(C)C3)c(O)c1,-12.7,-0.2,-17.1,7.8,-13.1,-4.9
COc1cccc(OC)c1OCCOCCn1cnc2ccccc2c1=O,-1.2,2.5,8.7,-4.0,7.8,1.8
